Sa helicase inh = inhibitors of S. aureus replicative helicase, primary screen, biochemical, fluorescence unwinding readout | replicative DNA helicase (DnaC/DnaB), Staphylococcus aureus | purified S. aureus helicase, fluorescence unwinding assay; about half of the hits fall short of the stated cut | inhibition, %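 (tested at about 80 µM)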 | 120,000 compounds, 0.05% hits | AID 485395, 2010;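 active means both duplicates at 50% or more, or one of them with a favoured structure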;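 further: 0% = mean of negative control wells and 100% = mean of positive control wells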
MgrA DNA FP = S. aureus MgrA activity modulators, primary screen, biochemical, S. aureus Newman, fluorescence polarization; inhibition, %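 (about 10 µg/mL by stock and volumes)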; MgrA-DNA binding; 84,000 compounds, 0.13% hits;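 active means above 50% in either of two replicates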;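 further: 0% = protein plus DNA without compound and 100% = DNA alone without protein; higher means less MgrA bound to DNA so lower polarization; one replicate is shown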
Numbers without * were called inactive; . = no result given. The list is partial, so the mix of outcomes need not match the whole.

Below each compound – Sa helicase inh, MgrA DNA FP
1. Cc1cc(C)c2c3c1C1C=CCC1CN3C(C(=O)O)C1CC=CC21 (stereo unspecified)
  7, 6.5
2. COc1ccc(NC(=O)CN(C)C(=O)c2oc3ccccc3c2C)cc1
  0, .
3. Cn1c(=Nc2cccc(O)c2)ccc2ccccc21
  4, 0.8
4. N#CC(=C1SCCCS1)S(=O)(=O)c1ccc(Cl)cc1
  ., -0.1
5. O=S(=O)(NCc1ccc(-c2cccs2)cc1)c1cccs1
  ., -0.3
6. CC(C)(C)NC(=O)N1c2ccccc2Sc2ccccc21
  1, -0.1
7. CCOC(=O)N1CCC(NS(=O)(=O)c2ccc(Cl)s2)CC1
  -6, .
8. Cn1nc(-c2ccc(Cl)cc2)c2cc(C(=O)NCc3ccco3)sc21
  -24, .
9. COc1ccc(-c2nc(C=C3C(=O)c4ccccc4C3=O)c3ccccn23)cc1
  -21, -5.6
10. CC(C(=O)N1CCCCC1)n1ncn2cccc2c1=O (stereo unspecified)
  -3, .
11. CN(C(=O)CSc1cccc[n+]1[O-])c1ccccc1
  -8, .
12. CCN(c1cccc(C)c1)c1ccccc1C
  3, -0.1
13. O=C(CCC1CCCCC1)Nc1nccs1
  9, 1.6
14. O=C(CCCc1ccccc1)Nc1cccc(C(=O)O)c1
  21, 0.1
15. CC1(NS(C)(=O)=O)CC=CC1
  -15, 0.5
16. OC(CSc1nncn1-c1ccccc1)C(F)(F)F (stereo unspecified)
  -13, .
17. Cc1csc2nc(CNC(=O)C3CCCCC3)cn12
  10, 4.2
18. O=C(CSc1nc2ccccc2[nH]1)Nc1ccccc1
  3, .
19. Cc1ccc(S(N)(=O)=O)cc1F
  -14, -0.3
20. O=C(NC(Cc1ccccc1)C(=O)N1CCC1)c1ccccc1 (stereo unspecified)
  2, .

The final seven compounds of the part above come first, to join the parts:
Below each compound – Sa helicase inh, MgrA DNA FP
14. O=C(CCCc1ccccc1)Nc1cccc(C(=O)O)c1
  21, 0.1
15. CC1(NS(C)(=O)=O)CC=CC1
  -15, 0.5
16. OC(CSc1nncn1-c1ccccc1)C(F)(F)F (stereo unspecified)
  -13, .
17. Cc1csc2nc(CNC(=O)C3CCCCC3)cn12
  10, 4.2
18. O=C(CSc1nc2ccccc2[nH]1)Nc1ccccc1
  3, .
19. Cc1ccc(S(N)(=O)=O)cc1F
  -14, -0.3
20. O=C(NC(Cc1ccccc1)C(=O)N1CCC1)c1ccccc1 (stereo unspecified)
  2, .
21. COc1cc(-c2cc(N)n(S(=O)(=O)c3ccccc3)n2)cc(OC)c1OC
  -12, .
22. COc1cc2[nH]c(=S)nc(NC3CCCCCC3)c2cc1OC
  5, 5.5
23. CCOc1ccc(NC(=O)CCNC(=O)c2cn(-c3cccc(OC)c3)c(=O)c3ccccc23)cc1
  3, 0.8
24. O=S(=O)(Nc1ccc(F)cc1)c1ccc(-n2cccn2)cc1
  10, .
25. O=C(Cn1ncc2c(=O)oc3ccccc3c21)N1CCCc2ccccc21
  16, 0.4
26. Cc1cc(C)c(S(=O)(=O)N2CCOCC2)cc1C
  -6, .
27. COC(=O)c1cn(CC(=O)c2cc(C)n(C)c2C)c2ccccc12
  -3, .
28. CC(C)NC1=NCCS1
  10, .
29. CCN(CC)S(=O)(=O)c1ccc(NC(C)CCc2ccccc2)nc1 (stereo unspecified)
  12, .
30. COc1ccc(-c2nnc(SCC(=O)NC(=O)NCc3ccco3)n2C(C)C)cc1
  8, .
31. O=C(CN1CCN(Cc2ccc(F)cc2)C1=O)NC1CCCC1
  26, .
32. COc1ccc(CC(NC(C)=O)C(=O)N2CCN(C(=O)Nc3ccc(C#N)cc3)CC2)cc1 (stereo unspecified)
  -1, -2.4
33. CCCC(=O)c1ccc(OC)c(OC)c1
  ., -1.5
34. COC(=O)c1cc(-c2c(C)oc3cc(OC(C)=O)ccc3c2=O)c(C)o1
  -10, .
35. COC(CNC(=O)c1sc2nc(-c3ccccc3)cn2c1C)OC
  -6, .
36. COC(=O)c1sc2ccccc2c1NC(=O)c1ccc(Br)s1
  15, .
37. O=C1OC(NCc2cccnc2)(c2ccccc2)c2ccccc21 (stereo unspecified)
  5, .
38. NC(=O)COC(=O)CSc1cccc2cccc(Cl)c12
  -16, -3.0
39. Cc1[nH]n(-c2ccccc2)c(=O)c1/C=C1\SC(=S)N(Cc2ccccc2)C1=O
  1, 1.7
40. COc1cccc(CNc2ncc(-c3ccccc3)n2C)c1
  -33, .

Quoted at random: three records from the list.
Below each compound – Sa helicase inh, MgrA DNA FP
35. COC(CNC(=O)c1sc2nc(-c3ccccc3)cn2c1C)OC
  -6, .
25. O=C(Cn1ncc2c(=O)oc3ccccc3c21)N1CCCc2ccccc21
  16, 0.4
21. COc1cc(-c2cc(N)n(S(=O)(=O)c3ccccc3)n2)cc(OC)c1OC
  -12, .

(continued)
Below each compound – Sa helicase inh, MgrA DNA FP
41. N#CC1=C(N)OC2=C(C(=O)CCC2)C12C(=O)Nc1ccccc12 (stereo unspecified)
  ., 3.5
42. Cc1n[nH]c(C)c1NC(=O)CSc1ccc(F)cc1
  12, .
43. Cc1c(C#N)c(/N=C/c2c(O)[nH]c(=O)[nH]c2=O)n(C2CCCCC2)c1C
  -61, .
44. COc1ccc(-c2nnc(SCC(=O)c3ccc4c(c3)NC(=O)CO4)o2)cc1
  21, .
45. CC(Nc1nc(C(C)(C)C)cs1)=C(C#N)C#N
  7, .
46. C/C(=N\OC(=O)Nc1c(-c2c(Cl)cccc2Cl)noc1C)c1ccco1
  ., 1.5
47. O=C(O)CSCC(=O)Nc1cccc2c1CCCC2
  ., -3.2
48. Cc1cc(C)c(-n2c(SCC(=O)c3ccc(C#N)cc3)n[nH]c2=O)c(C)c1
  ., 2.1
49. C=CCn1c(-c2ccccc2)csc1=Nc1ccc(O)cc1
  10, -4.0
50. CC1(C)OC(=O)C(=CNc2ncccn2)C(=O)O1
  22, .
51. CC(C)S(=O)(=O)c1cnc(N2CCCCC2)nc1N
  ., -0.1
52. CCCNC(=O)CCc1nnc2ccc(N3CCCC3)nn12
  -3, 3.0
53. O[C@@]1(c2ccccc2)C2C3CC4C5C3C1C5C(F)(F)C42 (stereo partly specified)
  14, .
54. FC(F)(F)c1cc(-c2ccc(-n3cccc3)cc2)n[nH]1
  ., -1.8
55. COCc1cc(C)c2c(n1)sc1c2nc(C)n2c3ccccc3nc12
  13, 2.9
56. COc1ccc(OCCn2c(=O)oc3ccccc32)cc1
  7, 0.0
57. CC(=O)Nc1ccc(NC(NC(=O)c2ccco2)C(=O)c2ccc(Cl)cc2)cc1 (stereo unspecified)
  9, 2.1
58. CC1(C)CC(=O)C2=C(C1)OC1=C(C(=O)CC(C)(C)C1)C2c1ccccc1OCc1ccc(Cl)cc1Cl
  ., 0.5
59. Cc1cc(=O)[nH]c(=O)[nH]1
  -3, .
60. O=C(O)C(=Cc1ccc(-c2cccc(C(F)(F)F)c2)o1)C(=O)O
  0, 3.0
61. O=S(=O)(Nc1cccnc1)c1ccc(Oc2ccccc2)cc1
  -13, .
62. COc1cc(/C=N/N(C)C)ccc1OC(=O)c1cccs1
  4, .
63. CCOc1ccc(N2C(=O)/C(=C/c3ccc(OC)c(O)c3)N(C)C2=S)cc1
  -23, .
64. COc1ccc(NS(=O)(=O)Cc2ccccc2)cc1
  10, -2.0
65. CCC(=O)OCCNc1nc(-c2ccccc2)nc2ccccc12
  4, -1.3
66. CCOC(=O)c1sc(NC(=O)/C=C/c2ccc(Cl)cc2)cc1C
  10, -2.8
67. O=c1cc(-c2ccccc2)nc2scc(-c3ccc(Cl)cc3)n12
  ., 0.2
68. O=C(COC(=O)/C=C/c1ccc(Br)o1)Nc1ccc(N2CCOCC2)cc1
  5, .
69. CCCCn1c(SCC#N)nc2ccccc2c1=O
  -8, .
70. CC1CC(C)(C)CC2(CC(=O)N(c3ccc(Cl)cc3)C2=O)C1 (stereo unspecified)
  ., 4.5
71. CN(C)C(=O)c1c(N)no[n+]1[O-]
  -5, 3.8
72. COc1ccc(C(=O)SC2=NCCS2)cc1
  3, 3.8
73. COc1cc2c(cc1OC)C1=C(C#N)CN(CCc3ccccc3)CN1CC2
  6, 2.6
74. CCCn1nnc2sc3c(c2c1=O)CCC(C)C3 (stereo unspecified)
  1, .
75. O=C(CNCc1ccco1)Nc1ccccc1-n1cccc1
  6, -2.5
76. O=C(Cn1ncc2ccsc2c1=O)NCCN1CCN(Cc2ccccc2)CC1
  -4, 9.2
77. CN(C)C=N/C(=N\OCc1c(F)cccc1Cl)c1ccc(Cl)cc1
  ., 0.2
78. Cc1ccc(-c2csc(=NC(=O)C(C)C)n2-c2ccc(C)cc2)cc1
  14, .
79. COc1ccc(-c2onc3ccc(Cl)cc23)cc1
  3, -3.1
80. Cc1nn2c3cc(N4CCOCC4)ccc3nc2c2ccccc12
  6, -2.5

Sorted by the number under MgrA DNA FP (high to low): some entries from above
entry	canonical_smiles	Sa helicase inh	MgrA DNA FP
71	CN(C)C(=O)c1c(N)no[n+]1[O-]	-5	3.8
73	COc1cc2c(cc1OC)C1=C(C#N)CN(CCc3ccccc3)CN1CC2	6	2.6
80	Cc1nn2c3cc(N4CCOCC4)ccc3nc2c2ccccc12	6	-2.5

The results go on.
Below each compound – Sa helicase inh, MgrA DNA FP
81. Cn1nnnc1SCC(=O)Nc1ccc(C(=O)NCc2ccc3c(c2)OCO3)cc1
  -17, .
82. COc1ccc(C2=NOC(C(=O)Nc3ccc(C#N)cc3)C2)cc1 (stereo unspecified)
  9, .
83. C(=N\N1CCOCC1)/c1cn(-c2ccccc2)nc1-c1ccccc1
  -7, .
84. c1ccc2c(c1)nc(NC1CCCCC1)c1nnnn12
  14, .
85. O=C(NCCO)Nc1c[nH]c2c(Cl)cccc2c1=O
  5, -2.5
86. CSC1=NCCN1C(=O)Cc1ccccc1
  -9, .
87. COc1c2c(nc3occc13)C(CCC(C)(C)O)(OC)C(O)CC2 (stereo unspecified)
  -25, .
88. O=C(O)C12CCC(C(=O)O)(CC1=O)C(=O)C2
  ., 1.0
89. O=c1cc(-c2ccccc2)[nH]c(=S)[nH]1
  4, 2.4
90. C=CCn1cc(C(=O)NCC2CCCO2)c(=O)c2cc(S(=O)(=O)N(CC)CC)ccc21 (stereo unspecified)
  0, .
91. Cc1cccn2c(=O)c3cc(C(=O)NCC4CCCO4)c(=N)n(CCN4CCOCC4)c3nc12 (stereo unspecified)
  24, 0.0
92. FC(F)(F)c1cccc(NC(=S)NCc2cccnc2)c1
  ., -0.2
93. CCOC(=O)N1CCN(C(=O)c2ccc3c(=O)n(CC4CCCO4)c(=S)[nH]c3c2)CC1 (stereo unspecified)
  11, 0.8
94. O=C1c2ccccc2C(O)(c2ccccc2)N1c1ccc(N2CCOCC2)cc1 (stereo unspecified)
  16, 4.9
95. Cc1ccc(S(=O)(=O)Nc2ccc(O)c(Sc3ncn[nH]3)c2)cc1
  8, .
96. Cc1ccccc1N1C(=O)c2ccccc2NC1c1ccncc1 (stereo unspecified)
  4, 0.5
97. Cc1nn(C)c2ncc3c(=O)n(Cc4ccccc4Cl)n(C)c3c12
  -15, .
98. CC(C)(C)NC(=O)c1cc2ccccc2oc1=O
  ., 0.5
99. CC(C)(C)NC(=O)CCCc1nc(-c2ccccc2)no1
  -19, .
100. O=C(N=C1N=C2N=CC=CN2Cc2ccccc21)C1CCCCC1
  12, .
101. CCOC(=O)CN1CC23C=CC(O2)C(C(=O)NC2CCCCCC2)C3C1=O (stereo unspecified)
  10, .
102. O=C1/C(=C/N2CCCCC2)Nc2ccccc21
  1, 1.2
103. COc1ccc(-c2cc(C(F)(F)F)n3nc(-c4ccccc4)cc3n2)cc1
  ., -2.2
104. Cc1nc2ccc(S(=O)(=O)CCC(=O)N3CCN(Cc4ccccc4)CC3)cc2s1
  -18, 1.1
105. COc1ccc(CNC(=O)COC(=O)C2=COCCO2)cc1
  -5, .
106. CCn1c(=S)sc2c(=O)[nH]c(-c3ccc(OC)c(O)c3)nc21
  4, .
107. CCOc1ccccc1-c1nc(=S)[nH][nH]1
  8, -0.8
108. Cc1cc(C(F)(F)F)c(C#N)c(N)c1C#N
  5, 9.7
109. N#CC1=C(N)Oc2cc(N)ccc2C1c1cccnc1 (stereo unspecified)
  24, .
110. COc1ccc(C(=S)N2CCCCC2)cc1
  0, .
111. COC(=O)c1sccc1NC(C)=O
  ., 0.4
112. COC(=O)c1ccc(CSc2nc3c(c(=O)n2-c2ccccc2)SCC3)o1
  3, .
113. O=c1c(N2CCC3(CC2)OCCO3)csc2ccccc12
  20, .
114. CCCN(C(=O)[C@H]1[C@@H]2C[C@@H]3[C@H]1C(=O)O[C@@H]3C2)c1c(C)cc(C)cc1C
  -17, .
115. COC(=O)c1ccc(NC(=O)Cn2cc(OC)c(=O)cc2CN2CCCCC2)cc1
  7, .
116. CC1Cc2ccccc2N1C(=O)COc1cccc2c1OC(C)(C)C2 (stereo unspecified)
  -10, .
117. CN(C)c1c(F)cc(-c2nn[nH]n2)cc1F
  ., 2.1
118. Clc1ccc(C(c2ccccc2)N2CCNCC2)cc1 (stereo unspecified)
  13, .
119. O=C(Cc1cccc(C(F)(F)F)c1)NCC(c1ccco1)N1CCCCC1 (stereo unspecified)
  9, .
120. Cc1ccc(/C=c2\sc3ncnn3c2=O)o1
  3, 16
121. CCCc1nnc(NC(=O)Cc2coc3cc(C)ccc23)s1
  -17, .
122. Cc1cccc(OCC(=O)NS(=O)(=O)c2ccc(Cl)cc2)c1
  7, -2.0

Screening results as filed in PubChem BioAssay.
